# Compound activity (PubChem)
# gsp agonist: activates gsp, the McCune-Albright syndrome mutation; gsp mutant cells, cAMP HTRF, 30 min; control for the full effect not named in the record; actives 0.13% (n = 340,000); AID 624287; Potency, µM (highest dose often 76.9 µM), inactives show top-dose activation (cAMP increase), hits mostly activators; active = well fitted activation curve with a large enough effect; inconclusive = small, poorly fitted or top-dose-only effect, or another doubt; inactive = no such curve, though single readings can be large or run the other way; cell line not stated here;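 also: phosphodiesterase inhibitor Ro 20-1724 added with compounds to block cAMP breakdown; potency is read from the fitted curve at half-maximal effect; nearly all actives have a fitted effect of over 60% in size; about a fifth of the inactives were tested at one dose only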
#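 Cells in DMEM/10% FBS with G418 were pretreated with compounds in DMSO plus […] (300 uM stock) for 30 min at 37C. cAMP was measured by HTRF (cAMP-d2 plus anti-cAMP antibody-K) after 30 min at room temperature.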
# D2 agonist: activates the human D2 dopamine receptor. actives 0.084% (n = 360,000). P14416. AID 624465. activation, % (test concentration not listed). DiscoveRx PathHunter D2 beta-arrestin, luminescence, 90 min; 100% = 57 uM dopamine signal; in the data active = activation above about 40%; inconclusive = about 15% to 40%; inactive = below about 15%; also: compound concentration not given in the record; the text of the record calls up to 30% inactive
# Target sequence (P14416 whole entry, looked up): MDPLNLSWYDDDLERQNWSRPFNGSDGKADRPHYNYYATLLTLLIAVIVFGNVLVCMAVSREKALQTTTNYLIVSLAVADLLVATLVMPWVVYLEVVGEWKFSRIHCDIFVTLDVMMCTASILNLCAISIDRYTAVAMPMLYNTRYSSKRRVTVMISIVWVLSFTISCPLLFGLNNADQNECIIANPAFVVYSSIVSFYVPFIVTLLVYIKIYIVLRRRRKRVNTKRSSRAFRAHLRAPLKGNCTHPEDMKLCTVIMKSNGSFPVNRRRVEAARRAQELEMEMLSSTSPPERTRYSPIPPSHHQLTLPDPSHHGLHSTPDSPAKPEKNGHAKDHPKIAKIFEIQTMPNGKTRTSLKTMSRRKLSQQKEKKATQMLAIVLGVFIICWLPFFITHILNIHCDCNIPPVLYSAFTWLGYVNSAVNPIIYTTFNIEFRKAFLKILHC
#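 DiscoveRx PathHunter D2 beta-arrestin cells (2,100/well) attached overnight, then compound-stimulated 90 min at 37 C in HBSS/10 mM HEPES/0.1% Tween-20 buffer; beta-galactosidase complementation read by luminescence after 1 h at ambient temperature. Dopamine 57 uM final (EC100) as control.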
# gsp antagonist: antagonists of gsp mutant (McCune-Albright syndrome). AID 624288. Potency, µM (titrated, usually from 76.9 µM), inactives show at the top dose activity change, negative = inhibition, actives largely listed as inhibitors. actives 0.4% (n = 340,000). gsp-mutant cells, cAMP HTRF, 30 min; control for the full effect not named in the record; active = falling curve of any shape with a large fitted effect; inconclusive = falling curve, mostly with a smaller effect; inactive = flat or rising curve; cell line not stated here;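 also: intracellular cAMP measured with PDE inhibitor Ro 20-1724 present during compound exposure; potency is read from the fitted curve at half-maximal effect; % is scaled to controls: 0 for no effect and ±100 for the full control effect; nearly all actives have a fitted effect of over 65% in size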
#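 Cells in G418 medium, seeded 16-24 h, 37C; buffer exchange to DPBS + 1 mM CaCl2, 0.5 mM MgCl2, 0.05% BSA; cpds in DMSO + […] (300 uM stock), 30 min 37C; HTRF cAMP detection.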
# CtBP-E1A blk: inhibitors of CtBP/E1A interaction. activity change, % (test concentration not listed). AID 651724. actives 0.49% (n = 340,000). AlphaScreen GST-E1A/His-CtBP binding, 1536-well; stronger effect = lower value; control for the full effect not named in the record; in the data active means activity change below about -65%; inconclusive means about -30% to -65%; inactive means above about -30%; also: % is scaled to controls: 0 for no effect and ±100 for the full control effect; compound concentration not given in the record
#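 GST-E1A and His-tagged CtBP (125 nM each as 5X stock) were preincubated with pin-transferred compound for 2 h at 37 °C in the dark, then glutathione donor and nickel acceptor beads were added for 1 h before AlphaScreen reading.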
# Six1-Eya2 inh: blocks human Six1 binding to Eya2; AlphaScreen GST-Six1/His-Eya2 binding, biochemical; stronger effect = lower value; control for the full effect not named in the record; activity change, % (no concentration beside the values); actives 0.56% (n = 360,000); AID 651725; in the data active = activity change below about -65%; inconclusive = about -30% to -65%; inactive = above about -30%; also: % is scaled to controls: 0 for no effect and ±100 for the full control effect; compound concentration not given in the record
#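 AlphaScreen luminescence read after one hour at 37 °C in darkness. Pin-transferred compounds met GST-Six1 and His-Eya2 protein (5X stock 250 nM/500 nM) plus glutathione donor and Ni-chelate acceptor beads (5X, 50 ug/mL).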
# D2 potentiator: potentiates the human D2 dopamine receptor allosterically. actives 0.23% (n = 360,000). AID 624464. DiscoveRx D2 beta-arrestin cells, luminescence, 90 min; 100% = 57 uM dopamine signal. potentiation, % (concentration not given with the values); active = potentiation of 50% or more; inconclusive = 30% to 50%; inactive = 30% or less;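 also: compound concentration not given in the record; tested on top of an EC20 dose of dopamine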
#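 PathHunter D2 cells, attached overnight at 37 deg C, received compound in DMSO plus dopamine at EC20 (50 nM final) for 90 min at 37 deg C. Beta-arrestin recruitment was read as luminescence after 1 h with detection reagent at ambient temperature.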
# * marks the source's active call; other numbers are inactive results; ? = inconclusive; / = not tested or not shown; [ ] = dose if it differs, or a comment.
molecule	gsp agonist	D2 agonist	gsp antagonist	CtBP-E1A blk	Six1-Eya2 inh	D2 potentiator
CCOc1ccc(Nc2nc(N)c([N+](=O)[O-])c(N3CCN(CC)CC3)n2)cc1	-11%	3.9	-2%	/	-24	-16
CC(NC(=S)Nc1c(Cl)cccc1OC(F)F)C(C)(C)C (stereo not given)	-56%[inhibitor]	-0.5	11%	1	-2	-4
COc1cccc(C(O)c2nc(-c3ccc(Cl)cc3)cs2)c1 (stereo not given)	/	11	/	6	0	5
Cc1ccc(N2CN(Cc3ccco3)CNC2=S)cc1	-2%[15.4 µM]	-3.0	/	5	7	-7
CC(=NNC(=S)N1CC2CCC(CC2)C1)c1cccc(C)n1	-7%	-17	6%	-16	-88*	-45
Cc1cnc(NC(=O)c2nn(C)cc2[N+](=O)[O-])s1	-11%	-1.5	1%	3	-1	-5
O=C(O)CC(CC(=O)O)n1cccc1	11%	1.5	10%	9	1	-32
O=C(CN(C(=O)c1csnn1)c1ccccc1F)NCc1ccccc1	-2%[15.4 µM]	-3.8	/	-11	9	-1
C=CCN1C=C2C(=O)C(C)(OC(=O)CCc3ccccc3)C(=O)C=C2C=C1c1ccc(C#N)cc1 (stereo not given)	-60%[inhibitor]	10	4%	/	-13	18
O=c1[nH]c(/C=C\c2cccc(C(F)(F)F)c2)nc(O)c1[N+](=O)[O-]	0%[15.4 µM]	-1.3	4%	-2	6	-5
CCc1nnc(NC(=O)c2ccc3c(=O)n4c(nc3c2)CCC4)s1	3%	-1.0	/	0	-9	-2
COc1ccc(C(=O)NC(=S)NNC(=O)c2ccc3ccccc3n2)cc1	21%[15.4 µM]	5.7	-4%	-82*	-86*	-1
CS(=O)(=O)Nc1ccccc1C(=O)Nc1ccccc1Cl	-34%[inhibitor]	-2.4	-12%	10	10	6
N#Cc1c(-c2ccccc2)c(-c2ccccc2)n[nH]c1=O	35%	1.6	-7%	-20	-16	-6
Cc1cc(OCC(=O)NCC(C)C)cc(C)c1Br	0%	-4.1	-12%	10	8	2
COc1ccc(NC2CCCN(C(=O)CCc3ccccc3F)C2)cc1 (stereo not given)	12%	3.3	-7%	-12	-10	-6
N#Cc1ncc(Cl)c2ccccc12	-3%	0.2	5%	/	-3	-4
Cc1ccc(-c2c(C(=O)N/N=C/c3ccncc3)nnn2-c2nonc2N)cc1	-107%[inhibitor]	0.6	?	28	16	-5
Clc1cccc(Cl)c1CN1CCN(c2ncccn2)CC1	-32%[inhibitor]	?	4%	11	0	2
CCOC(=O)C(=O)NCC(c1ccco1)S(=O)(=O)c1cccs1 (stereo not given)	-4%[15.4 µM]	-0.5	9%	12	-2	-2
CCOC(=O)C1=C(CS(=O)(=O)c2ccc(F)cc2)NC(=O)NC1c1cc(OC)c(O)c(OC)c1 (stereo not given)	30%	3.8	0%	5	0	3
Cc1noc(C)c1COc1ccc(C(=O)N2CCN(S(=O)(=O)c3ccc(Cl)cc3)CC2)cc1	4%	3.9	9%	2	5	27
COc1ccc(C(=O)Nc2ccc(CN3CCOCC3)cc2)cc1Br	18%	-1.3	-2%	-19	-3	-4
O=C(COc1ccc2ccccc2c1Br)N1CCCCC1	?	2.4	-1%	5	2	2
Cc1c(NC(=O)CN2CCN(c3ccccc3)CC2)c(=O)n(-c2ccccc2)n1C	2%	-0.1	-2%	3	8	-1

# Other structures:
molecule	gsp agonist	D2 agonist	gsp antagonist	CtBP-E1A blk	Six1-Eya2 inh	D2 potentiator
OCCC1CN(Cc2cnc(-c3cccc4ccccc34)nc2)CCN1C1CCCCC1 (stereo not given)	2%	-7.0	7%	/	-16	-6
CC1=NN(c2ccccc2)C(=O)/C1=C/c1cn(C)c2ccccc12	2%[15.4 µM]	-11	?	-12	6	-14
Cc1ccccc1NS(=O)(=O)c1ccc2[nH]cc(C(=O)NCCCN3CCOCC3)c(=O)c2c1	29%	-1.5	1%	0	0	-8
CS(=O)(=O)N(CC(=O)NCCSC1CCCCC1)c1cccc(F)c1	7%	-0.8	-1%	-5	-8	6
Cc1ccc(Cn2ccc(NC(=O)c3cc(-c4ccc5c(c4)OCO5)on3)n2)cc1	15%	-1.9	20%	7	4	-8
O=C(CN1C(=O)NC2(CCCC2)C1=O)Nc1cccc(-c2nnc3n2CCCCC3)c1	-1%	-2.4	0%	7	-1	-18
CC(=O)Nc1ccc(C(=O)OCC(=O)Nc2ccc([N+](=O)[O-])cc2C(F)(F)F)cc1	2%[15.4 µM]	9.7	2%	-2	-5	8
COc1ccc(C(=O)Nc2ccc(S(=O)(=O)Nc3nccc(C)n3)cc2)cc1OC	5%	-1.1	16%	-1	1	-5
Cc1ccc(Cl)cc1N1CCN(C(=O)C2CCN(S(=O)(=O)c3cnc[nH]3)CC2)CC1	-30%	-0.4	-16%	0	6	-12
COc1ccc(C(=O)C2CCCN(Cc3ccc4nonc4c3)C2)cc1OC (stereo not given)	11%	-1.0	-11%	-5	1	-4
CC(=O)c1nn(-c2cccc(Br)c2)cc1C(=O)c1ccc(Br)cc1	?	-2.8	12%	4	5	-1
Cc1cc(C)c(S(=O)(=O)N2CCN(C(=O)C(C)Cn3nc(C)nc3C)CC2)c(C)c1 (stereo not given)	12%	2.5	-1%	9	4	-9
Cc1c(Cl)cnc(NC(=O)COC(=O)c2ccc3ncsc3c2)c1Cl	-25%	-2.9	5%	-9	-10	-7
COCCCNC(=O)c1c[nH]c2ccc(S(=O)(=O)N3CCc4ccccc43)cc2c1=O	-7%[15.4 µM]	7.4	?	-15	-29	7
Clc1ccc2c(N/N=C/c3ccccc3Br)ccnc2c1	10%[15.4 µM]	-1.4	-4%	-13	5	-18
O=C(Nc1ccc(F)cc1)NC1(C(=O)NCc2cccs2)CCCCC1	26%	-1.0	2%	1	-1	-7
Cc1cccc(-c2nnc(SCc3cc(=O)[nH]c4ccccc34)n2C)c1	-22%	-0.9	-5%	4	3	-4
CCCCn1c(N)c(N(CCOC)C(=O)c2cnccn2)c(=O)[nH]c1=O	-44%	-1.5	-1%	-1	-1	?
O=C(Cc1cccc(C(F)(F)F)c1)Nc1cc(S(=O)(=O)N2CCOCC2)ccc1N1CCCC1	18%	9.1	-15%	2	1	-2
CC(=O)NCc1ccc(S(=O)(=O)N2CCCN(C)CC2)cc1	20%	-1.8	10%	5	-7	-2
Cc1ccc(CCN2CC(C(=O)NCCCN3CCC(C)CC3)CC2=O)cc1 (stereo not given)	-43%[inhibitor]	0.4	12%	10	1	-13
CNc1ccc(C(=O)N2CCN(S(=O)(=O)c3ccc4c(c3)OCCCO4)CC2)cc1[N+](=O)[O-]	-41%[inhibitor]	-1.2	-26%	20	2	-1
CN1CCN(CCCNC(=O)c2ccc(/C=C3\Sc4ccccc4N(Cc4ccccc4F)C3=O)cc2)CC1	-38%[inhibitor]	-1.4	0%	-6	-5	-7
COc1ccccc1CNC(=O)c1c(-c2ccccc2)nn(-c2ccccc2)c1C	-41%	-2.8	?	-2	-3	-14
CC1(C(=O)OCC(=O)Nc2ccc(Cl)cn2)CC1(Cl)Cl (stereo not given)	10%	-2.3	5%	/	5	-16

# Next records
# Field names: A = gsp agonist; B = D2 agonist; C = gsp antagonist; D = CtBP-E1A blk; E = Six1-Eya2 inh; F = D2 potentiator
Molecule: CCc1cccc(C)c1NC(=O)C1CN(S(=O)(=O)c2ccccc2)CCN1S(=O)(=O)c1ccccc1 (stereo not given)
  A = -27% | B = 1.4 | C = -16% | D = 3 | E = -13 | F = -18
Molecule: Cc1cc(C)c(S(=O)(=O)c2ccccc2C)c(Oc2ccccc2)n1
  A = 3% | B = 2.3 | C = -9% | D = -2 | E = 4 | F = 5
Molecule: Nc1c(C(=O)OCC(=O)Nc2ccc(OC(F)F)cc2)[nH]c(=O)[nH]c1=O
  A = -1% | B = -1.9 | C = 8% | D = / | E = 0 | F = -5
Molecule: Cc1ccc(C(=O)COC(=O)COc2ccc(C)c(C)c2)cc1
  A = -25% | B = -2.6 | C = 3% | D = 12 | E = 19 | F = -1
Molecule: CSc1nnc(C)c(=O)n1COC(=O)/C=C/c1ccc2c(c1)OCO2
  A = 5% | B = -1.2 | C = -17% | D = -9 | E = -15 | F = -2
Molecule: CC(=O)Nc1ccc(-c2sc(Nc3ccccc3)n[n+]2C)cc1
  A = ? | B = 0.9 | C = 11% | D = / | E = -6 | F = 0
Molecule: O=[N+]([O-])c1ccc(CN2[C@H](COCc3ccccc3)[C@@H](N3CCCC3)CS2(=O)=O)cc1
  A = / | B = 1.2 | C = / | D = -4 | E = -15 | F = -11
Molecule: O=C(C/C=N/OCc1c(Cl)cccc1Cl)c1ccccc1
  A = -26% | B = -0.5 | C = -1% | D = 11 | E = 16 | F = -14

# Entries listed so far that contain an NH in an aromatic ring, in the order listed:
# Field names: A = gsp agonist; B = D2 agonist; C = gsp antagonist; D = CtBP-E1A blk; E = Six1-Eya2 inh; F = D2 potentiator
Molecule: O=c1[nH]c(/C=C\c2cccc(C(F)(F)F)c2)nc(O)c1[N+](=O)[O-]
  A = 0%[15.4 µM] | B = -1.3 | C = 4% | D = -2 | E = 6 | F = -5
Molecule: N#Cc1c(-c2ccccc2)c(-c2ccccc2)n[nH]c1=O
  A = 35% | B = 1.6 | C = -7% | D = -20 | E = -16 | F = -6
Molecule: Cc1ccccc1NS(=O)(=O)c1ccc2[nH]cc(C(=O)NCCCN3CCOCC3)c(=O)c2c1
  A = 29% | B = -1.5 | C = 1% | D = 0 | E = 0 | F = -8
Molecule: Cc1ccc(Cl)cc1N1CCN(C(=O)C2CCN(S(=O)(=O)c3cnc[nH]3)CC2)CC1
  A = -30% | B = -0.4 | C = -16% | D = 0 | E = 6 | F = -12
Molecule: COCCCNC(=O)c1c[nH]c2ccc(S(=O)(=O)N3CCc4ccccc43)cc2c1=O
  A = -7%[15.4 µM] | B = 7.4 | C = ? | D = -15 | E = -29 | F = 7
Molecule: Cc1cccc(-c2nnc(SCc3cc(=O)[nH]c4ccccc34)n2C)c1
  A = -22% | B = -0.9 | C = -5% | D = 4 | E = 3 | F = -4
Molecule: CCCCn1c(N)c(N(CCOC)C(=O)c2cnccn2)c(=O)[nH]c1=O
  A = -44% | B = -1.5 | C = -1% | D = -1 | E = -1 | F = ?
Molecule: Nc1c(C(=O)OCC(=O)Nc2ccc(OC(F)F)cc2)[nH]c(=O)[nH]c1=O
  A = -1% | B = -1.9 | C = 8% | D = / | E = 0 | F = -5
